GIV-Gai inh – inhibitors of GIV peptide binding to Galpha-i3, primary screen, biochemical, fluorescence polarization, FITC-GIV GBA peptide, rat Galphai3; Guanine nucleotide-binding protein G(i) subunit alpha-3 (Rattus norvegicus), P08753; 90 min; hits give low values; scaled: aluminum fluoride 0%, vehicle 100%; percent of control (FP), % (concentration not given with the values); 0.42% of 210,000 active;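 active means replicate mean at 85% of control or lower, very high polarization wells dropped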;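 further: wells of about 15 µL received 100 nL stock; the first replicate is given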
Target sequence (P08753 whole entry, looked up): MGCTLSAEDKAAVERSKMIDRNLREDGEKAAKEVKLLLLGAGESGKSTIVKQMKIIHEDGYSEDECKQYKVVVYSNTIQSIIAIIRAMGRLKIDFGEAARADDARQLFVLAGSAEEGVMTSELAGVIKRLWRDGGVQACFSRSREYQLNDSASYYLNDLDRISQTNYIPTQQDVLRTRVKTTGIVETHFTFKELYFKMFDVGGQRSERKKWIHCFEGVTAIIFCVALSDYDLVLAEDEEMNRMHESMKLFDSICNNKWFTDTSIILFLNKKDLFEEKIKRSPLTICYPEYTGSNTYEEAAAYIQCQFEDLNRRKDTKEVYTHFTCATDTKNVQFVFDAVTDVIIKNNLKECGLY
Sa growth 42C – S. aureus growth inhibition at 42 and 30 °C, primary screen, LtaS inhibitor project, RN4220, two temperatures; OD600, 20 h, 42 °C; hits give low values; relative growth, % (no concentration beside the values); 0.53% of 170,000 active;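 active means growth at 42 °C up to 50% and 20 or more points under that at 30 °C, or under 10% at both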;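 further: 300 nL library stock went into each well; scaled to the means of positive and negative controls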
HCMV UL50-53 inh – inhibitors of HCMV UL50-UL53 interaction, biochemical, HTRF. HCMV UL50-UL53 nuclear egress complex (human cytomegalovirus). normalized percent inhibition. inhibition, % (test concentration not listed). 0.15% of 190,000 active. AID 1918969, 2023;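 active means both replicates at 50% or more, plus weaker picks with an unusually low signal ratio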;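 further: stock transfer was 100 nL into about 20 µL; 0% = negative control wells and 100% = wells with untagged competitor protein; inactives centre near -12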
Sa growth 42C second temp – also measured in Sa growth 42C; calls as there; relative growth, %; measured here: growth at 30 °C;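 optical density after 20 h as mean of two plates; 100% = untreated growth and lower means inhibition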
* marks the source's active call; other numbers are inactive results.

For O=C(NCC1CCCO1)C1CCCN(C(=O)c2cc(-c3ccccn3)n[nH]2)C1 (stereo not drawn) the results were GIV-Gai inh 99 and HCMV UL50-53 inh -1.
For COc1cccc(CNC(=O)c2ccc(CNS(=O)(=O)c3ccc(C)cc3)cc2)c1 the results were GIV-Gai inh 100, Sa growth 42C 87 and Sa growth 42C second temp 100.
Screening COc1ccc(NC(=O)C(C)n2nnc3sc4c(c3c2=O)CCCC4)cc1 (stereo not drawn) returned GIV-Gai inh 103 and HCMV UL50-53 inh -37.
`CCCCN(Cc1ccco1)C(=O)c1cc2c(s1)-c1ccccc1OC2` gave GIV-Gai inh 99, Sa growth 42C 83 and Sa growth 42C second temp 69.
Oc1ccccc1C1=NC(c2ccc(F)cc2)NC(c2cccnc2)C1 (stereo not drawn) was read as GIV-Gai inh 101, Sa growth 42C 75 and Sa growth 42C second temp 81.
Screening CCOC(=O)c1ccc(NC(=O)c2oc3c(c2C)-c2nn(Cc4ccc(C)cc4)cc2CC3)cc1 returned GIV-Gai inh 105, Sa growth 42C 94 and Sa growth 42C second temp 81.
Screening O=C(CSc1ccccn1)N1CCCCC1 returned Sa growth 42C 103, HCMV UL50-53 inh -22 and Sa growth 42C second temp 95.
`Cc1nc(C(F)(F)F)ccc1C(=O)O` gave GIV-Gai inh 106, Sa growth 42C 87, HCMV UL50-53 inh -16 and Sa growth 42C second temp 91.
For Cc1cc(N2C(=O)CCS2(=O)=O)cc(C)c1S(=O)(=O)NC1CC1 the results were GIV-Gai inh 99 and HCMV UL50-53 inh -2.
O=C(Nc1cc(-c2ccc(Cl)cc2)no1)c1ccc(F)cc1 was read as GIV-Gai inh 97, Sa growth 42C 95, HCMV UL50-53 inh -7 and Sa growth 42C second temp 97.
`O=C(Nn1c(-c2cccs2)nc2ccccc2c1=O)c1cc2ccccc2oc1=O` gave GIV-Gai inh 103 and HCMV UL50-53 inh -45.
`CCOC(=O)CSC1=NC(=O)/C(=C\c2ccc(Cl)cc2)S1` gave Sa growth 42C 86, HCMV UL50-53 inh -18 and Sa growth 42C second temp 71.

Entries from the list above with a furan ring, fused or not:
`CCCCN(Cc1ccco1)C(=O)c1cc2c(s1)-c1ccccc1OC2` gave GIV-Gai inh 99, Sa growth 42C 83 and Sa growth 42C second temp 69.
Screening CCOC(=O)c1ccc(NC(=O)c2oc3c(c2C)-c2nn(Cc4ccc(C)cc4)cc2CC3)cc1 returned GIV-Gai inh 105, Sa growth 42C 94 and Sa growth 42C second temp 81.

Following part
Screening O=C(NC1CCSc2ccccc21)C1=CC=CN2CCS(=O)(=O)N=C12 (stereo not drawn) returned Sa growth 42C 93, HCMV UL50-53 inh -4 and Sa growth 42C second temp 99.
For COc1ccc2c(ccc[n+]2[O-])c1 the results were Sa growth 42C 81, HCMV UL50-53 inh -66 and Sa growth 42C second temp 95.
O=C(c1ccccc1Cl)N1CCC(c2nc3ccccc3o2)CC1 was read as GIV-Gai inh 112 and HCMV UL50-53 inh -20.
`CCCSc1nc2c(sc(=S)n2-c2ccc(OCC)cc2)c(=O)[nH]1` gave GIV-Gai inh 102 and HCMV UL50-53 inh -20.
Screening CC1=CC(=O)N(c2cscc2C)C1=O returned GIV-Gai inh 109, Sa growth 42C 92, HCMV UL50-53 inh -10 and Sa growth 42C second temp 91.
COC(=O)c1ccc(COC(=O)Cn2c(C)csc2=O)cc1 was read as Sa growth 42C 115, HCMV UL50-53 inh -16 and Sa growth 42C second temp 105.
O=C(Nc1nc2ccccc2n1CCOc1ccc(Cl)cc1)c1ccco1 was read as GIV-Gai inh 102, Sa growth 42C 65, HCMV UL50-53 inh 0 and Sa growth 42C second temp 64.
CCCn1c(=O)c2c(nc3n2CCCN3c2ccc(OCC)cc2)n(C)c1=O was read as GIV-Gai inh 103, Sa growth 42C 103, HCMV UL50-53 inh 7 and Sa growth 42C second temp 96.
For O=C(OCCN1C(=O)c2cccc3c(N4CCOCC4)ccc(c23)C1=O)c1cccc(Br)c1 the results were GIV-Gai inh 109 and HCMV UL50-53 inh -5.
`COc1ccc(C2CC(=O)N3CN(C(C)c4ccccc4)CSC3=C2C#N)cc1` (stereo not drawn) gave GIV-Gai inh 109, Sa growth 42C 78, HCMV UL50-53 inh -39 and Sa growth 42C second temp 60.
`COc1ccc(C2C(S(=O)(=O)c3ccccc3)=C(O)C(=O)N2c2ccc(Cl)cc2)cc1` (stereo not drawn) gave GIV-Gai inh 101 and HCMV UL50-53 inh -18.
For CCN(CC(=O)Nc1ccccc1OC)CC(=O)Nc1cccc2nsnc12 the results were Sa growth 42C 98, HCMV UL50-53 inh -39 and Sa growth 42C second temp 93.
Screening CC(C)N(C(C)C)S(=O)(=O)c1ccc(Oc2ccc3c4c(c(=O)oc3c2)CCC4)nc1 returned Sa growth 42C 94, HCMV UL50-53 inh -11 and Sa growth 42C second temp 94.
CCOc1ccc(NC(=O)CSC2=C(C#N)C(c3ccc(Cl)cc3)C(C(=O)OC(C)(C)C)=C(C)N2)cc1 (stereo not drawn) was read as GIV-Gai inh 105 and HCMV UL50-53 inh 3.
CC(c1ccccc1)n1c(SCC(=O)c2csc3ccccc23)n[nH]c1=O (stereo not drawn) was read as GIV-Gai inh 101, Sa growth 42C 99, HCMV UL50-53 inh -23 and Sa growth 42C second temp 91.
For C=CCN1C(=O)c2ccccc2Sc2ccc(C(=O)NCc3ccccc3)cc21 the results were GIV-Gai inh 103, Sa growth 42C 119, HCMV UL50-53 inh 1 and Sa growth 42C second temp 81.
For Cc1c(NC(=O)CN(c2ccc(Cl)c(C(F)(F)F)c2)S(=O)(=O)c2ccccc2)c(=O)n(-c2ccccc2)n1C the results were GIV-Gai inh 107 and HCMV UL50-53 inh 8.
For CC(C)n1c(=O)[nH]c2cc(-c3noc(/C=C/c4ccccc4Cl)n3)ccc21 the results were GIV-Gai inh 105 and HCMV UL50-53 inh -11.
Screening CCOC(=O)c1ccc(CN(Cc2ccc(F)cc2)S(=O)(=O)c2ccc(F)c(C(=O)Nc3ccc(Cl)cc3F)c2)cc1 returned GIV-Gai inh 104, Sa growth 42C 121 and Sa growth 42C second temp 95.
For COc1ccc(CNC(=O)Cn2nc(-c3ccccc3)ccc2=O)cc1 the results were GIV-Gai inh 99, Sa growth 42C 136 and Sa growth 42C second temp 75.
CCOC(=O)CSc1nc2ccc(C)cc2[nH]1 was read as GIV-Gai inh 103 and HCMV UL50-53 inh -17.
For COc1ccc(Nc2nnc(C)c3ccccc23)cc1C(=O)N1CCCCC1 the results were GIV-Gai inh 101, Sa growth 42C 105, HCMV UL50-53 inh 5 and Sa growth 42C second temp 95.
Screening CCc1nc(-c2cc(S(=O)(=O)N3CCN(c4ccccn4)CC3)c(C)s2)no1 returned GIV-Gai inh 103 and HCMV UL50-53 inh -40.
Screening Cc1cccc(Cn2c(SCc3ccc(C(=O)N4CCCCC4)cc3)nc3ccncc32)c1 returned GIV-Gai inh 105, Sa growth 42C 105 and Sa growth 42C second temp 67.

Of the compounds above, these have a CF3 group:
`Cc1nc(C(F)(F)F)ccc1C(=O)O` gave GIV-Gai inh 106, Sa growth 42C 87, HCMV UL50-53 inh -16 and Sa growth 42C second temp 91.
For Cc1c(NC(=O)CN(c2ccc(Cl)c(C(F)(F)F)c2)S(=O)(=O)c2ccccc2)c(=O)n(-c2ccccc2)n1C the results were GIV-Gai inh 107 and HCMV UL50-53 inh 8.

(list continues)
`CCCCSc1nnc2c(n1)OC1(Nc3ccccc3-2)C(=O)Nc2ccc(F)cc21` (stereo not drawn) gave GIV-Gai inh 102 and HCMV UL50-53 inh -27.
CC1=CC2=C(OC1N(C)C)c1cccc3cccc(c13)C2=O (stereo not drawn) was read as GIV-Gai inh 104, Sa growth 42C 96 and Sa growth 42C second temp 78.
Screening COc1ccccc1NC(=O)C1=C(C)OCCS1 returned GIV-Gai inh 112, Sa growth 42C 103, HCMV UL50-53 inh 18 and Sa growth 42C second temp 92.
Screening Cc1nc2ccn(Cc3cccnc3)c(=O)c2cc1C(=O)N1CCN(c2ccccc2)CC1 returned GIV-Gai inh 98, Sa growth 42C 96 and Sa growth 42C second temp 86.
For O=C(/C=C/c1ccc(F)cc1)NC(=S)NCc1ccco1 the results were GIV-Gai inh 95, Sa growth 42C 104, HCMV UL50-53 inh -20 and Sa growth 42C second temp 109.
For Cc1c(C(=O)Cn2ccnc2)sc2ccc(Cl)cc12 the results were GIV-Gai inh 105, Sa growth 42C 104, HCMV UL50-53 inh -46 and Sa growth 42C second temp 75.
For Nc1nnc(SCC(=O)c2ccccc2)s1 the results were Sa growth 42C 113, HCMV UL50-53 inh 6 and Sa growth 42C second temp 87.
Cc1cc(Cl)ccc1OCC(=O)Nc1ccnn1C1CCCC1 was read as GIV-Gai inh 106 and HCMV UL50-53 inh -4.
Screening Clc1ccc(-c2csc3ncnc(-n4ccnc4)c23)cc1 returned GIV-Gai inh 101, Sa growth 42C 90, HCMV UL50-53 inh -11 and Sa growth 42C second temp 80.
Screening COc1cc(OC)c(NC(=O)Cn2ncc3c4ccccc4n(C)c3c2=O)cc1Cl returned GIV-Gai inh 108, Sa growth 42C 103, HCMV UL50-53 inh 4 and Sa growth 42C second temp 96.
Screening CCOC(=O)COc1ccc(/C=C2\C(=O)NC(=O)N(c3ccc(Br)cc3)C2=O)cc1 returned GIV-Gai inh 109 and HCMV UL50-53 inh -4.
O=C1C2C3C=CC(C2C(=O)N1C1CCCCC1)C1C2C(=O)N(C4CCCCC4)C(=O)C2C31 (stereo not drawn) was read as GIV-Gai inh 99 and HCMV UL50-53 inh -9.
For O=C1c2ccccc2C(=O)N1c1nc2n(n1)C(c1ccc(F)cc1)C=C(c1ccccc1)N2 (stereo not drawn) the results were GIV-Gai inh 98 and HCMV UL50-53 inh -26.
`CC1(C(=O)NC2CCCCC2)Cn2c(c(-n3cccc3)c3ccccc32)C(=O)N1Cc1ccccn1` (stereo not drawn) gave GIV-Gai inh 99 and HCMV UL50-53 inh -6.
Screening CCOC(=O)CN(Cc1ccccc1)C(C(=O)NC1CCCCC1)c1ccc(C)cc1 (stereo not drawn) returned GIV-Gai inh 101, Sa growth 42C 78, HCMV UL50-53 inh -3 and Sa growth 42C second temp 91.
Screening CC(=O)Nc1ccc(S(=O)(=O)N2CCN(c3cc(N(C)C)nc(C)n3)CC2)cc1 returned GIV-Gai inh 101 and HCMV UL50-53 inh -14.
For Cc1ccccc1NC(=S)N(CCCN1CCOCC1)Cc1cccnc1 the results were GIV-Gai inh 110, Sa growth 42C 78, HCMV UL50-53 inh -4 and Sa growth 42C second temp 95.
`CC(C)c1ccc(S(=O)(=O)c2cnc(SCC(=O)Nc3ccccc3)[nH]c2=O)cc1` gave GIV-Gai inh 98, Sa growth 42C 103 and Sa growth 42C second temp 91.
Screening Cc1ccc(C)c(NC(=O)CSc2nnc(CNC(=O)c3ccco3)n2-c2ccc(F)cc2)c1 returned GIV-Gai inh 109, Sa growth 42C 98, HCMV UL50-53 inh 6 and Sa growth 42C second temp 98.
`CCc1noc(C)c1C(=O)NC(c1ccccc1)c1ccc(Cl)cc1` (stereo not drawn) gave Sa growth 42C 99, HCMV UL50-53 inh -18 and Sa growth 42C second temp 101.
For O=C(CSc1nc2ccccc2nc1Cc1ccccc1)NCc1ccccc1Cl the results were GIV-Gai inh 105, Sa growth 42C 106 and Sa growth 42C second temp 95.
For Cc1ccc(-c2n[nH]c(=O)c3ccccc23)cc1S(=O)(=O)N1CCOCC1 the results were GIV-Gai inh 106 and HCMV UL50-53 inh -4.
Screening Cc1ccc(CN2CCC(CNc3ncnc4onc(C(=O)O)c34)C2)cc1 (stereo not drawn) returned GIV-Gai inh 112, Sa growth 42C 102, HCMV UL50-53 inh 5 and Sa growth 42C second temp 98.
For Cc1c(-c2ccnn2C(=O)Nc2ccccc2)cnn1-c1ccccc1 the results were GIV-Gai inh 102, Sa growth 42C 97, HCMV UL50-53 inh -12 and Sa growth 42C second temp 79.
CN1CCN(NC(=O)CC(C)(C)C)CC1 was read as GIV-Gai inh 102, Sa growth 42C 105, HCMV UL50-53 inh -5 and Sa growth 42C second temp 94.
For CCOc1ccccc1C=Nc1ccc(OC(F)(F)F)cc1 the results were Sa growth 42C 97, HCMV UL50-53 inh -11 and Sa growth 42C second temp 94.
Screening NC(=O)c1ccc(NC(=O)CC23CC4CC(CC(Br)(C4)C2)C3)cc1 returned Sa growth 42C 115, HCMV UL50-53 inh -11 and Sa growth 42C second temp 88.
Screening COc1ccc(CCN2C(=O)C3CC=C(C)CC3C2=O)cc1OC (stereo not drawn) returned GIV-Gai inh 100, Sa growth 42C 101, HCMV UL50-53 inh 15 and Sa growth 42C second temp 84.
Screening Cc1ccc2[nH]c(C)cc(=S)c2c1 returned GIV-Gai inh 104, Sa growth 42C 5.8*, HCMV UL50-53 inh -103 and Sa growth 42C second temp 39*.
Screening COc1cc(OC)c(NC(=O)Nc2ccccc2OCc2cc(=O)n3cc(C)ccc3n2)cc1Cl returned GIV-Gai inh 105, Sa growth 42C 80 and Sa growth 42C second temp 94.
For CC1CCN([C@H]2CS(=O)(=O)C[C@@H]2S(=O)(=O)c2cccs2)CC1 the results were GIV-Gai inh 100 and HCMV UL50-53 inh 10.
`COc1ccc(N2CC(C(=O)O)CC2=O)cc1` (stereo not drawn) gave GIV-Gai inh 104, Sa growth 42C 125, HCMV UL50-53 inh -4 and Sa growth 42C second temp 94.

Screening data deposited in PubChem BioAssay by ICCB-Longwood Screening Facility, Harvard Medical School.
